Sfp PPTase inh = qHTS Assay for Inhibitors of Bacillus subtilis Sfp phosphopantetheinyl transferase (PPTase). 4'-phosphopantetheinyl transferase ffp (Bacillus subtilis), Q9F4F7. Biochemical Sfp PPTase activity, qHTS. Potency, µM, for inactives: max response, negative = inhibition, hits mostly inhibitors. 310,000 compounds, 3.5% hits. AID 1490, 2009; active = well fitted inhibition curve with a large enough effect; inconclusive = small, poorly fitted or top-dose-only effect, or another doubt; inactive = no such curve, though single readings can be large or run the other way;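 also: the enzyme is Sfp with the accession as filed and its product quenches rhodamine fluorescence; potency is read from the fitted curve at half-maximal effect; 0% = enzyme reaction without inhibitor and -100% = no enzyme wells; top concentration of the series not given in the record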
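Fluorescence-quenching assay with 15 nM Sfp, 5 uM rhodamine-CoA and 12.5 uM BHQ-2-labelled ybbR peptide in pH 7.6 Hepes/MgCl2 buffer. Enzyme was pre-incubated with compound for 15 min at room temperature. Rate was taken from the 30-min fluorescence change (525/598 nm).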
TRPML1 inh = qHTS for Inhibitors of the Human Mucolipin Transient Receptor Potential 1 (TRPML1); Mucolipin-1 (Homo sapiens), Q9GZU1; TRPML1-inducible cells, Ca2+ dye fluorescence, FDSS; active compounds read low; inhibition of EC80 agonist-evoked calcium signal; activity change, negative = inhibition, % (concentration not given with the values); 390,000 compounds, 0.02% hits; AID 624415, 2012; in the data active means activity change below about -50%; inconclusive means about -30% to -50%; inactive means above about -30%;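 also: stimulus is agonist 54-4 at its EC80 concentration; % is scaled to controls: 0 for no effect and ±100 for the full control effect; the text of the record puts the active cut at -80%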
Target sequence (Q9GZU1 whole entry, looked up): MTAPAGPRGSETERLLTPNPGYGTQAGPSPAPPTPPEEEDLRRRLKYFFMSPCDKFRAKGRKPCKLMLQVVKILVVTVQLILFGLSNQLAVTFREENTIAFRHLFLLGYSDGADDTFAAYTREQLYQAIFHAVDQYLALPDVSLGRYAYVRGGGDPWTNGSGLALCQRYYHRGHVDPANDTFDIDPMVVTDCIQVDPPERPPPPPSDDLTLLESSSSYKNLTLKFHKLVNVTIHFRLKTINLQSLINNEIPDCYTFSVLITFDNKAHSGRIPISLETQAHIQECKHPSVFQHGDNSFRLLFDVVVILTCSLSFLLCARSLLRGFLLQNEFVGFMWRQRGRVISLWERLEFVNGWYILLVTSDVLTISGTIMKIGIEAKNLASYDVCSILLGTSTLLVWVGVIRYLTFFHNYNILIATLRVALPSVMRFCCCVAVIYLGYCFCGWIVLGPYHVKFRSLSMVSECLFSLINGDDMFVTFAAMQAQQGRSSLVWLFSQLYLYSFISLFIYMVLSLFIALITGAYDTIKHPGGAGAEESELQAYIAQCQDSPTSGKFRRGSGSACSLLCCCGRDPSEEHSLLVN
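Tet-induced TRPML1-DL cells loaded with Ca8 no-wash calcium dye were read kinetically on FDSS. Compound addition was followed by EC80 agonist 54-4 (4 uM final); inhibition was read over 110 s.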
TRPV1 PAM = HTS Assay for Compounds that Act as Potentiators of the Vanilloid Receptor 1 | 320,000 compounds, 0.02% hits | potentiation, % at 8.33 µM | TRPV1-expressing cells, Fluo-8 calcium influx, capsaicin EC20 potentiation; host cell line not named in the record; control for the full effect not named in the record | AID 540277, 2011 | Transient receptor potential cation channel subfamily V member 1 (Homo sapiens), Q8NER1; active means potentiation above 80%; inconclusive means 30% to 80%; inactive means below 30%; also: 0% is about no effect
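TRPV1-expressing cells were cultured overnight at 35.5C and loaded with Fluo-8 calcium dye for 40 to 90 min at room temperature. After a 10 s baseline, compound was added and calcium influx was read kinetically for 3 min (ex 480/em 520 nm).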
TRPML1 ag = qHTS for Agonists of the Human Mucolipin Transient Receptor Potential 1 (TRPML1) | Mucolipin-1 (Homo sapiens), Q9GZU1 | TRPML1-expressing cells, Ca2+ dye fluorescence, FDSS; host cell line not named in the record; reference of the full effect not given here | activation, % (concentration not given with the values) | 410,000 compounds, 0.12% hits; in the data active = activation above about 50%; inconclusive = about 30% to 50%; inactive = below about 30%; also: 0% is about no effect; the text of the record puts the active cut at 80%
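Agonist activity was taken from a 110 s kinetic Ca2+ dye read on the FDSS after pinning compounds onto TRPML1-DL cells. The cells were seeded at 1,500/well with Tet inducer, incubated about 16 h, then dye-loaded at room temperature.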
PINK1 modulator = A Quantitative High throughput Screen to Identify Chemical Modulators of PINK1 Expression; PINK1 immunofluorescence, high-content cytometry, 24 h; Potency, µM (top dose mostly 76.6 µM), for the others: top-dose activation (PINK1 increase), hits mostly activators; 410,000 compounds, 0.2% hits; active = well fitted activation curve with a large enough effect; inconclusive = small, poorly fitted or top-dose-only effect; inactive = flat fitted curve, though single readings scatter; cell line not stated here;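 also: potency is read from the fitted curve at half-maximal effect; % of control where 0% means no effect; nearly all actives have a fitted effect of over 65% in size; a mitochondrial uncoupler was the plate control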
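Decision-based qHTS: stable cells, 24 h exposure to five compound concentrations, CCCP as control. Fixed cells stained for PINK1 plus nuclear, mitochondrial and cell markers, cytometer read.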
ClpP mod = qHTS Assay for Activators of ClpP. Potency, µM (top dose mostly 57.5 µM), without a hit: at the highest dose activity change, negative = active. purified B. subtilis ClpP, FRET peptide cleavage, 20 min. ATP-dependent Clp protease proteolytic subunit (Bacillus subtilis (strain 168)), P80244. AID 651965, 2013. 340,000 compounds, 1.9% hits; active = well fitted falling curve with a large enough effect; inconclusive = small, poorly fitted or top-dose-only effect; inactive = no such curve, though single readings can be large or run the other way; also: potency is read from the fitted curve at half-maximal effect; the source files actives as falling curves though it sought activators and does not explain the sign; nearly all actives have a fitted effect of over 65% in size; many hits overshoot -100%
Target sequence (P80244 whole entry, looked up): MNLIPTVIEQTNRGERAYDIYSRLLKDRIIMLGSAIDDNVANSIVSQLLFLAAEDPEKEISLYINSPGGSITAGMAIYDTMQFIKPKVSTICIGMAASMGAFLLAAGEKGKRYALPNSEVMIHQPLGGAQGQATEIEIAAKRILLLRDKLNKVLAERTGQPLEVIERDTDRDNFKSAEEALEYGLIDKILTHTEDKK
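ClpP 10 microg/mL final, pH 8 Tris/KCl buffer with BSA, glycerol, Tween-20; compound pinned in; FRET-FV substrate; RT 20 min; Ex320/Em430; ΔFRET vs ADEP 5.8 microM, DMSO, no enzyme.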
Menin MLL FP FL = qHTS Assay for Inhibitors Targeting the Menin-MLL Interaction in MLL Related Leukemias: Competition With Fluorescein Labeled MLL-derived Peptide. Fluorescence polarization, fluorescein-MLL peptide displacement from menin. FP activity change, % at 61.4 µM. 290,000 tested, under 10 active. AID 1766, 2009; inconclusive = falling polarisation curve, or a change in total fluorescence; inactive = total fluorescence flat and polarisation flat or rising; no compound was filed as active; the % refers to the polarisation; negative = inhibition;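 also: % of control where 0% means no effect; inhibitors lower the polarisation; unlabelled MLL peptide was the positive control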
An asterisk follows results filed as active; ? = inconclusive; · = no result given; [ ] = remark or other dose. Random draw from the library; any-hit rate near 4.4%.

SMILES	Sfp PPTase inh	TRPML1 inh	TRPV1 PAM	TRPML1 ag	PINK1 modulator	ClpP mod	Menin MLL FP FL
COc1cccc(C2=CC(c3ccccc3O)NC(C)(C)N2)c1 (centres undefined)	·	·	·	-0.2	0.6%	-9.6%	·
Nc1c(N(Cc2ccco2)C(=O)c2cccc(Cl)c2)c(=O)[nH]c(=O)n1Cc1ccccc1	·	-11	3	-0.3	1.9%	-6.2%	·
Cc1noc(C)c1S(=O)(=O)N1CCC(C(=O)NC2CCN(Cc3ccccc3)CC2)CC1	6%	0	1	0.0	·	0.2%	1.1
O=C(NCCCN1CCN(c2ccccc2F)CC1)C1CCC(=O)N1C1CCCC1 (centres undefined)	13%	-1	5	-0.6	-0.5%	-0.8%	11
COc1ccc(CN(C)C(=O)c2ccc3c(=O)n4c(nc3c2)CCC4)cc1	-7%	10	-12	-0.6	0.1%	-6.4%	·
COc1ccc(NC(=O)CCCn2cc([N+](=O)[O-])cn2)cc1	13%	-20	2	-0.5	-0.1%	0.4%	3.7
CCc1ccc(CN2C(=O)c3ccccc3C2C(=O)NCCc2ccc(OC)c(OC)c2)cc1 (centres undefined)	·	15	·	-0.4	-0.3%	-2.0%	·
CC(C)c1cc(C(=O)N2CCCC(N3CCN(c4ccc(F)cc4)CC3)C2)n(C)n1 (centres undefined)	14%	1	8	-0.5	-0.9%	-4.6%	-1.9
CC(C#N)(NC(=O)CN1CCN(S(=O)(=O)c2cccc(F)c2)CC1)C1CC1 (centres undefined)	·	-2	·	-0.2	-1.3%	-2.0%	·
O=c1[nH]ncc(N2CCCC2)c1Cl	7%	1	3	-0.7	2.5%	·	-0.5
COCCCN1C(=O)C(CC(=O)NCCCN(C)C)CC(C(=O)N2CCCCCC2)=C1C (centres undefined)	·	·	·	-0.4	2.8%	-2.3%	·
CCOC(=O)C1=C(C)NC(=O)C1CC(=O)O (centres undefined)	4%	46	-7	-0.2	-0.4%	-2.3%	2.7
CN(CC(O)COCc1ccc2c(c1)OCO2)C1CCCCC1 (centres undefined)	9%	17	6	0.2	2.9%	-1.0%	0.2
O=C(c1ccc(Br)o1)N1CCC(Cc2ccccc2)CC1	-3%	0	-8	2.3	-0.9%	0.8%	-1.1
CC(c1ccccn1)N(CCN(C)C)C(=S)Nc1cccc(F)c1 (centres undefined)	-18%	-3	-3	0.8	5.8%[38.3 µM]	-2.6%	3.4
COc1cc2c(cc1OC)CC1(CCCCC1)N=C2	7%	-19	3	1.5	0.1%	·	-0.4
CC(=O)Nc1ccc(NC(=O)c2cc([N+](=O)[O-])cc([N+](=O)[O-])c2)cc1	-8%	2	-12	0.0	-0.6%	·	-1.5
COc1ccc(CC(=O)O/N=C(\N)c2ccncc2)cc1	20%	-6	-2	-1.3	-0.5%	·	3.2
COc1ccc(NC(=O)Cn2cc(C#N)c3ccccc32)cc1	-9%	3	5	1.5	0.8%	-20%	0.2
COc1ccc(C(=O)Nc2ccc(S(=O)(=O)Nc3nccc(C)n3)cc2)cc1OC	27%	19	9	-0.4	-1.8%	-3.6%	0.7

Not a retest: an excerpt of the list.
SMILES	Sfp PPTase inh	TRPML1 inh	TRPV1 PAM	TRPML1 ag	PINK1 modulator	ClpP mod	Menin MLL FP FL
COc1cccc(C2=CC(c3ccccc3O)NC(C)(C)N2)c1 (centres undefined)	·	·	·	-0.2	0.6%	-9.6%	·
Nc1c(N(Cc2ccco2)C(=O)c2cccc(Cl)c2)c(=O)[nH]c(=O)n1Cc1ccccc1	·	-11	3	-0.3	1.9%	-6.2%	·

(listing goes on)
SMILES	Sfp PPTase inh	TRPML1 inh	TRPV1 PAM	TRPML1 ag	PINK1 modulator	ClpP mod	Menin MLL FP FL
N#CC1=C(N)NC(SCc2ccc(F)cc2)=C(C#N)C12CCCCC2	-1%	-1	-2	2.3	?	-1.2%	0.0
Nc1ncnc2c1ncn2[C@@H]1O[C@H](CNCc2ccc(OCc3ccccc3)cc2)[C@@H](O)[C@H]1O	·	-15	·	0.3	-0.2%	0.2%	·
Cc1ccc(/C=C2\Oc3c(ccc(O)c3CN3CCN(CCO)CC3)C2=O)cc1	-20%	-14	?	28	1.6%	·	?
COC(=O)N1C2CCCCC2=NN(c2ccccc2)N1C(=O)OC (centres undefined)	·	·	·	-0.7	0.6%	-2.9%	·
Cc1cccc(OCC(=O)NNC(=O)CCN2CCN(c3ccccc3)CC2)c1C	·	-5	·	-0.2	0.5%	·	·
COCCNC(=O)C(c1ccncc1)N(Cc1ccccc1)C(=O)Cn1nnc2ccccc21 (centres undefined)	12%	-7	2	-0.3	1.7%	·	3.3
Cc1cccc(/C(N)=N/OC(=O)c2ccncc2)c1	-7%	-8	-16	0.2	0.4%	2.1%	·
CC(C)C(CCNCc1ccccn1)c1ccc(Cl)cc1 (centres undefined)	-14%	18	-7	0.3	5.6%	·	-3.3
COc1cc(C=CC(=O)c2cc(OC)c(OC)c(OC)c2)cc(OC)c1OC	·	0	·	1.6	-2.0%	-5.1%	·
O=C(c1ccoc1)N1CCN(c2cc(-c3cccc(F)c3)nc3cc(-c4cccc(Cl)c4)nn23)CC1	·	2	·	-0.2	1.2%	4.5%	·
CCOc1ccccc1NC(=S)N1CCCCCC1	9%	-15	7	0.4	-0.8%	-0.5%	-1.7
COc1ccc(N2CC(C(=O)Nc3ccc(NC(C)=O)cc3)CC2=O)cc1 (centres undefined)	·	31	·	-0.3	-0.7%	0.5%	·
O=C(CCc1ccccc1)NNC(=S)NCCc1ccccc1	16%	5	?	0.2	-0.2%	-1.9%	·
COc1ccc(NC(=O)[C@H](C)NS(=O)(=O)c2ccc(NC(C)=O)cc2)cc1Cl	·	-3	·	0.0	1.6%	0.0%	·
O=C(Nc1cc(F)ccc1F)c1cnn2c1NC(=C1CC1)C=C2C(F)F	·	·	·	-0.4	-0.4%	0.5%	·
COc1ccc(/C=C2\SC(=S)N(CCCCCC(=O)Nc3cc(C)on3)C2=O)cc1OC	-25%	-13	-5	0.8	14µM*	-1.4%	?
CCCS(=O)(=O)N1CCC(C(=O)N2CCC(Cc3ccccc3)CC2)CC1	6%	-12	-13	-0.1	2.6%	-0.3%	3.0
CCc1ccc(NC(=O)Nc2ccon2)cc1	-5%	-11	-13	1.2	-1.1%	0.1%	-1.7
CC1CC(C)CN(C(=O)COC(=O)C2CCN(S(=O)(=O)c3ccc4c(c3)OCCO4)CC2)C1 (centres undefined)	·	13	-12	0.4	-1.0%	-2.6%	·
CCCNc1nc2c(c(=O)n(C)c(=O)n2C)n1CCCc1ccccc1	12%	35	-9	2.3	-2.8%	-1.2%	0.3
COc1ccccc1NC(=O)C1=C(C)NC2=C(C(=O)CCC2)C1c1ccc(C)o1 (centres undefined)	-2%	-7	7	-0.7	-1.8%[38.3 µM]	-2.9%	0.4
Cn1ncc(Br)c1C(=O)NC12CC3CC(CC(C3)C1)C2	-7%	4	-14	1.0	0.1%	-2.2%	3.1
COc1cc(NC(=O)CCc2c(C)nc3c4c(C)cc(C)nc4nn3c2C)cc(OC)c1	·	-5	·	0.8	8.2%	-12%	·
Cc1ccc(C(=O)Nn2cnc3scc(-c4cccs4)c3c2=O)c(O)c1	-22%	3	3	5.0	0.5%[38.3 µM]	-1.1%	0.6
O=C(Oc1ccc2c(c1)OCO2)c1cc2c(s1)CCC2	-5%	6	-4	0.2	2.5%	-1.2%	-2.9
COc1cc(Cl)ccc1OC1(C)CCN(Cc2cccn2-c2nccs2)C1 (centres undefined)	·	·	·	-1.0	4.1%	0.5%	·
Cc1cc([N+](=O)[O-])ccc1NC(=O)Cc1ccc(F)cc1	8%	-16	0	1.4	0.5%	3.0%	·
COc1ccc(OC)c(NC(=O)c2cc(-c3ccc(C)cc3O)n[nH]2)c1	-17%	16	8	-1.0	0.2%	-8.6%	-3.4
Cc1ccc(NC(=O)Nc2cccc([N+](=O)[O-])c2)cc1F	79µM*	9	-9	0.1	?	-0.6%	6.8
COc1ccc(OC)c(S(=O)(=O)N2CCCC2C(=O)NC(C)c2ccccc2)c1 (centres undefined)	17%	-3	4	0.6	-0.4%	-0.7%	2.1
CC(C)NCC(=O)C12CC3CC(CC(C3)C1)C2	-12%	1	0	-0.3	0.8%	-1.3%	-0.9
Cc1oc(=O)cc(OCc2ccccc2)c1C	·	-7	·	-0.9	-1.0%	3.7%	·
Cc1ccc(C(=O)OCC(=O)N2CCCCCC2)cc1S(=O)(=O)N1CCOCC1	·	-10	·	0.2	-0.7%	-6.4%	·
Cc1nc2c(OCc3ccc(C(F)(F)F)cc3)cccn2c1N(C)CC1CC1	·	5	·	16	?	-9.3%	·
CCSc1ccccc1C(=O)Nc1ccc(-c2nc3ccccc3s2)c(O)c1	·	-23	·	-0.2	11%	-2.1%	·
O=C(OCC(=O)N1CCN(c2ccccc2)CC1)c1ccccc1[N+](=O)[O-]	·	-9	6	-1.0	1.6%	-2.8%	·
CCCCCn1c(=O)[nH]c2cc(C(=O)N3CCN(C(=O)OCC)CC3)ccc2c1=O	5%	-7	11	-0.4	3.9%	·	0.4
Cn1nc(-c2ccccc2)c(C(=O)Nc2ccc(C(F)(F)F)cc2)c1Cl	20%	4	-6	-0.4	·	-8.7%	-0.5
CCOc1ccc(C(c2c(O)cc(C)n(CCOC)c2=O)N2CCN(c3ccc(F)cc3)CC2)cc1 (centres undefined)	·	-23	·	0.0	-0.7%	1.5%	·
COCCCNC(=O)c1cccc(OC)c1OC	-2%	-8	0	-0.8	0.2%	-0.6%	2.5
O=C(CCCCCn1c(=O)[nH]c2ccccc2c1=O)NCc1cccc(Cl)c1	·	0	·	-0.6	0.2%	-0.5%	·
Cc1ccc(NC(=O)CCS(=O)(=O)c2cccc3nonc23)c(C)c1	·	-3	·	-0.5	4.1%	-1.9%	·
